# rRNA inh HTS: inhibitors of bacterial rRNA selective over humanized ribosomes. E. coli WT GFP vs humanized-ribosome RFP mutants, fluorescence, 24 h; hits give low values; DMSO median 0, no signal -100. GFP signal change (wild-type ribosome), % (no concentration beside the values). 350,000 compounds, 1.6% hits;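 active means significant combined selectivity score with lowered wild-type GFP, culture density cut under 30%, mutant RFP and density less affected; inactive means any of these conditions unmet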; further: one replicate is shown; some compounds called inactive have numbers as strong as hits
# MLL AF4-AF9 inh: blocks AF4 peptide binding to human AF9; P42568; AlphaScreen, biotin-AF4 peptide binding to FLAG-AF9; inhibition, % at 10 µM; 350,000 compounds, 0.47% hits;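 active means every replicate reaching a set inhibition limit, whatever the replicate mean, cut at about 25% in these data; inconclusive means mean inhibition reaches that limit but some replicates miss it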;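 further: 0% = plate neutral control median and 100% = total signal loss; the record names both 10 and 1 µM as test concentration; the first replicate is given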
# Target sequence (P42568 whole entry, looked up): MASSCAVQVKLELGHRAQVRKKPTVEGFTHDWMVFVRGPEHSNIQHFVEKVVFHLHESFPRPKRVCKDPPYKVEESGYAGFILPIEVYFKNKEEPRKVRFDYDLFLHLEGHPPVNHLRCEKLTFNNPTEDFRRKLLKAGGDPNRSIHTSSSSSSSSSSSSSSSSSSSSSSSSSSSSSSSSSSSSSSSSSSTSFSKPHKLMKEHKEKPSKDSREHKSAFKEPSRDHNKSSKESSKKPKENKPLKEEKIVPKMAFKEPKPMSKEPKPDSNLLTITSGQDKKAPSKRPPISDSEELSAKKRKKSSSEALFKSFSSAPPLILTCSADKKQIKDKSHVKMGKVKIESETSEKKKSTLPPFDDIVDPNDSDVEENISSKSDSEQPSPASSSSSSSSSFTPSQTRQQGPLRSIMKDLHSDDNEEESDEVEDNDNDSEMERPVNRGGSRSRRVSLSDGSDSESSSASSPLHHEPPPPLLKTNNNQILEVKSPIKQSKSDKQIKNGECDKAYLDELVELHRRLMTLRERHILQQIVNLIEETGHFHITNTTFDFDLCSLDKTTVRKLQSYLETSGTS
# rRNA inh HTS OD600: recorded beside rRNA inh HTS, whose call it bears; OD600 change, %; measured here: OD600 growth;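 optical density of the mix in the first replicate; 0 = DMSO median and -100 = no signal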
# rRNA inh HTS RFP: recorded beside rRNA inh HTS, whose call it bears; RFP signal change, %; measured here: RFP humanized mutant strains;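 first replicate; 0 = DMSO median and -100 = no signal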
# * marks the source's active call; other numbers are inactive results; ? = inconclusive; & = joins results of further samples. An excerpt (hit frequency here may not be typical).
SMILES,rRNA inh HTS,rRNA inh HTS OD600,rRNA inh HTS RFP,MLL AF4-AF9 inh
CCCNC(=O)C[C@@H]1CC[C@@H]2[C@H](COC[C@@H](O)CN2C(=O)CC)O1,-2,-5,6.1,-2.5
CS(=O)(=O)N1[C@@H](C#N)[C@@H](c2ccccc2)[C@@H]1CO,1,1,-6.0,-0.8
O=C(NC1CCN(Cc2ccccc2)CC1)c1[nH]c(C(F)(F)F)nc1-c1ccccc1,1&19,7&15,4.7&3.7,0.1&1.4
COc1ccc(NC(=O)N(C)C[C@@H]2Oc3c(NS(=O)(=O)c4ccc(OC)cc4)cccc3C(=O)N([C@@H](C)CO)C[C@@H]2C)cc1,1,5,-1.1,1.2
CCC(=O)N[C@@H]1CC[C@@H](CCNC(=O)Nc2ccc(C(F)(F)F)cc2)O[C@@H]1CO,-58,-77,-17,11
CC(C)CC#Cc1ccc2c(c1)O[C@H](CN(C)C(=O)c1ccccc1F)[C@H](C)CN([C@H](C)CO)S2(=O)=O,-4,-9,3.9,-0.3
CC=Cc1ccc2n(c1=O)C[C@H]1[C@H](CO)[C@@H](C(=O)N(C)C)[C@@H]2N1C(=O)c1ccccc1 (mixture of isomers),2,0,-1.3,-1.1
C#CCNC(=O)C[C@H]1C[C@@]2(C(=O)OC)C(=C[C@H](C(C)(C)C)O[C@@H]2C)N(CCCCCCCC)C1=O,9,5,1.1,-0.4
C[C@@H]1CCCCO[C@H](CN(C)C(=O)Nc2ccc3c(c2)OCO3)[C@H](C)CN([C@H](C)CO)C(=O)c2cc(NS(=O)(=O)c3cn(C)cn3)ccc2O1,-1,-4,-0.3,-2.6
COC(=O)[C@]12CCCCC=C1N(Cc1ccc3c(c1)OCO3)C(=O)[C@H](CC(=O)N1CCN(C(=O)c3ccco3)CC1)C2,-8,-4,5.2,-1.1
CCNC(=O)[C@H]1[C@H](CO)[C@H]2Cn3c(ccc(-c4cccnc4)c3=O)[C@H]2N1Cc1ccccc1,0,9,-1.8,-0.1
Cc1noc(C)c1S(=O)(=O)Nc1ccc2c(c1)C(=O)N([C@H](C)CO)C[C@H](C)[C@H](CN(C)S(=O)(=O)c1ccc(F)cc1)OCCCC[C@H](C)O2,1,1,3.9,2.1
O=C(C[C@H]1CC[C@H](NC(=O)C2CCOCC2)[C@@H](CO)O1)Nc1nccs1,1,4,-1.5,8.6
CC=Cc1ccc2n(c1=O)C[C@@H]1[C@@H](CO)[C@H](C(=O)N3CCCCC3)N(C(=O)CC3CC3)[C@H]21 (mixture of isomers),5,0,-1.3,-1.7
O=S(=O)(c1ccccc1)N1CCCCN2[C@H](C1)[C@H](c1ccc(-c3ccccc3F)cc1)[C@@H]2CO,0,6,3.0,1.3
COc1cccc(S(=O)(=O)N2CC3(CN[C@H](CO)c4[nH]c5cc(OC)ccc5c43)C2)c1,-9,-11,5.2,6.5
C[C@H](CO)N1C[C@H](C)[C@@H](CN(C)Cc2ccccc2)Oc2ccc(NC(=O)CCN3CCOCC3)cc2C1=O,7,4,-1.1,-0.8
C[C@H](CO)N1C[C@H](C)[C@H](CN(C)S(=O)(=O)c2cn(C)cn2)OCCCC[C@H](C)Oc2ccc(NC(=O)Nc3cccc4ccccc34)cc2C1=O,-1,2,1.0,0.0
O=C(C1CCCCC1)N1CC(=O)N2[C@H](CO)[C@H](c3ccc(C#Cc4cccc(F)c4)cc3)[C@@H]2C1,-12,-42,27,-3.1
COc1ccccc1NC(=O)N1C[C@H](O)COC[C@H]2O[C@H](CC(=O)NCc3ccccc3)CC[C@@H]21,-4,-8,2.2,-2.4
COc1ccc(NC(=O)Nc2ccc3c(c2)CC(=O)N([C@@H](C)CO)C[C@@H](C)[C@H](CN(C)C(=O)Nc2ccc4c(c2)OCO4)O3)cc1,-3,-6,-1.4,3.7
CC1(C(=O)NCc2ccccc2)Cc2c(-c3ccc4c(c3)OCO4)ccnc2O1 (configuration not stated),-11,-45,-5.9,0.5
C[C@H](CO)N1C[C@H](C)[C@H](CN(C)Cc2cncnc2)Oc2cc(/C=C/c3ccccc3)ccc2S1(=O)=O,2,-22,12,19
CCc1nc2c(OCc3ccc(F)c(F)c3)cccn2c1N(C)C(=O)c1ccc(C)cc1,-41,-68,-4.8,-3.3
COc1ccc(CN(C)C[C@H]2Oc3ccc(NC(=O)Nc4ccccc4)cc3CC(=O)N([C@@H](C)CO)C[C@H]2C)cc1,4,-2,7.5,2.2
COc1ccc(NC(=O)N2C[C@@H](O)COC[C@H]3O[C@@H](CC(=O)N4CCN(C)CC4)CC[C@@H]32)cc1,6,3,0.4,-1.8
CO[C@@H]1CN(C)C(=O)c2cc(NC(=O)c3cccc(F)c3)ccc2OC[C@@H](C)NC[C@@H]1C,3,3,-1.0,-9.5
CO[C@@H]1CN(C)C(=O)c2cc(NC(=O)Nc3ccccc3)ccc2OC[C@@H](C)N(C(C)=O)C[C@@H]1C,0,3,0.7,5.4
COc1ccccc1C#Cc1ccc2c(c1)[C@@H]1[C@@H](CCN1C(C)=O)[C@@H](CO)N2C,2,-4,2.9,2.6
CCC(=O)N[C@H]1CC[C@H](CCNC(=O)Nc2ccc(F)cc2)O[C@H]1CO,3,3,1.0,0.0
O=C(C1CCOCC1)N1C[C@@H]2[C@H](c3ccccc31)[C@H](CO)N2C(=O)Cc1ccccn1,6,11,1.9,1.3
C[C@H]1CN([C@@H](C)CO)C(=O)c2cc(C3=CCCC3)cnc2O[C@@H]1CN(C)S(C)(=O)=O,2,0,-1.3,-7.8
Cc1ccc(S(=O)(=O)Nc2ccc3c(c2)C(=O)N([C@H](C)CO)C[C@H](C)[C@@H](CN(C)S(=O)(=O)c2cn(C)cn2)O3)cc1,4,10,1.1,0.2
CN(C)CC(=O)NC[C@H]1N[C@@H](CO)[C@H]1c1ccc(-c2cccc(C#N)c2)cc1,2,0,4.2,5.1
COc1cccc(C#Cc2ccc([C@H]3[C@@H](CO)N(C(=O)c4ccccn4)[C@H]3C#N)cc2)c1,-11,-36,-8.3,4.0
COc1cccc(S(=O)(=O)Nc2ccc3c(c2)[C@@H]2C[C@H](CC(=O)O)O[C@H](CO)[C@@H]2O3)c1,3,5,1.9,-2.1
C[C@@H]1CN([C@@H](C)CO)C(=O)c2cccc(NS(=O)(=O)c3cn(C)cn3)c2O[C@H]1CN(C)Cc1ccccc1,2,3,-4.1,-1.1
C[C@@H]1CN([C@H](C)CO)C(=O)Cc2cc(NC(=O)Cc3ccccc3)ccc2O[C@@H]1CN(C)C(=O)Nc1ccccc1,9,-4,1.2,-0.9
COc1ccc(CN(C)C[C@@H]2Oc3c(NS(=O)(=O)c4ccc(F)cc4)cccc3C(=O)N([C@@H](C)CO)C[C@H]2C)cc1,0,4,0.1,0.2
COc1ccc2c3c([nH]c2c1)[C@H](CO)N(S(=O)(=O)c1cn(C)cn1)CC31CCN(CC2CC2)CC1,0,4,0.4,10
CC(C)(C)[S@](=O)N1Cc2cc(C(=O)NCCc3ccncc3)nc(-c3cccc(-c4ccccc4)c3)c2[C@@H]1CCO,-9,-17,1.1,1.4
C[C@H](NC(=O)C[C@H]1C=C[C@@H](NC(=O)C2CC2)[C@H](CO)O1)c1ccccc1,0,0,-1.1,-1.5
C[C@@H]1CN([C@H](C)CO)C(=O)Cc2cc(N(C)C)ccc2O[C@@H]1CN(C)Cc1ccc(-c2ccccc2)cc1,-6,-31,9.9,44*
CO[C@@H]1CN(C)C(=O)c2cc(NC(=O)c3cc(C)on3)ccc2OC[C@H](C)N(C(=O)C2CC2)C[C@H]1C,3,7,-1.9,-2.4
CCOC(=O)C1CCCN(C(=O)c2ccc(F)c(C)c2)CC1 (configuration not stated),8,13,-1.7,-1.4
O=C(C[C@@H]1C[C@H]2c3cc(NS(=O)(=O)c4ccccc4)ccc3O[C@H]2[C@@H](CO)O1)NC1CCCC1,-6,-8,-2.4,0.0
COc1ccccc1C#Cc1cnc2c(c1)C(=O)N([C@H](C)CO)C[C@H](C)[C@H](CN(C)C(C)=O)O2,5,1,-1.3,-4.6
COc1ccc(S(=O)(=O)Nc2ccc3c(c2)C(=O)N([C@@H](C)CO)C[C@@H](C)[C@H](CN(C)S(=O)(=O)c2cccs2)OCCCC[C@@H](C)O3)cc1,-3,0,8.3,2.1
C[C@@H]1CCCCO[C@H](CN(C)C)[C@H](C)CN([C@@H](C)CO)C(=O)c2cc(NC(=O)c3ccccc3)ccc2O1,-1,-5,-0.7,-5.6
C[C@H](CO)N1C[C@H](C)[C@H](CN(C)S(=O)(=O)c2ccccc2)OCCCC[C@H](C)Oc2ccc(NS(=O)(=O)c3ccc(Cl)cc3)cc2C1=O,-2,-2,0.3,-1.1
C[C@H]1CN([C@@H](C)CO)C(=O)Cc2cc(NC(=O)Nc3ccc(F)cc3)ccc2O[C@H]1CN(C)Cc1ccc(Oc2ccccc2)cc1,7,10,-0.1,0.3
C[C@@H]1CN([C@H](C)CO)C(=O)c2cc(C#CCN(C)C)cnc2O[C@H]1CN(C)Cc1ccc(F)cc1,5,0,-4.7,6.2
C[C@H](CO)N1C[C@H](C)[C@H](CN(C)C(=O)NC2CCCCC2)Oc2ccc(NC(=O)Nc3ccc(F)cc3)cc2C1=O,-1,-4,-0.6,-3.7
C[C@@H]1COc2cc(N3CCN(Cc4ccccc4F)CC3)ccc2S(=O)(=O)N1,-11,-11,-2.5,0.1
O=C(Nc1ccccc1)Nc1ccc2c(c1)[C@H]1C[C@H](CC(=O)N3CCCCC3)O[C@H](CO)[C@H]1O2,-3,-2,-1.5,0.7
C[C@H](CO)N1C[C@H](C)[C@@H](CN(C)Cc2ccc(Cl)c(Cl)c2)Oc2ccc(NC(=O)Cc3cn(C)c4ccccc34)cc2C1=O,-6,-13,-2.1,0.2
Oc1ccc(C[C@H]2CN([C@@H](Cc3ccccc3)CN3CCC[C@@H]3CN3C(=S)NC[C@@H]3Cc3ccccc3)C(=S)N2CC2CCCCC2)cc1,22,7,7.6,5.3
C/C=C/c1ccc([C@@H]2[C@@H](CO)N(C(=O)C3CCC3)C23CN(S(=O)(=O)CC)C3)cc1,-1,-2,1.4,2.3
C[C@@H]1CN([C@H](C)CO)S(=O)(=O)c2ccc(C#C[C@@H](C)O)cc2O[C@@H]1CN(C)C(=O)Cc1ccccn1,5,-1,0.0,-4.0
C[C@@H]1CN([C@H](C)CO)C(=O)Cc2cc(NC(=O)NC3CCCCC3)ccc2O[C@@H]1CN(C)S(=O)(=O)c1cn(C)cn1,6,6,-1.6,-10

# Profiles, quoted from the list.
# C[C@@H]1CN([C@H](C)CO)S(=O)(=O)c2ccc(C#C[C@@H](C)O)cc2O[C@@H]1CN(C)C(=O)Cc1ccccn1 in the list: rRNA inh HTS: 5; rRNA inh HTS OD600: -1; rRNA inh HTS RFP: 0.0; MLL AF4-AF9 inh: -4.0
# COc1ccc(NC(=O)Nc2ccc3c(c2)CC(=O)N([C@@H](C)CO)C[C@@H](C)[C@H](CN(C)C(=O)Nc2ccc4c(c2)OCO4)O3)cc1 in the list: rRNA inh HTS: -3; rRNA inh HTS OD600: -6; rRNA inh HTS RFP: -1.4; MLL AF4-AF9 inh: 3.7
# COc1cccc(C#Cc2ccc([C@H]3[C@@H](CO)N(C(=O)c4ccccn4)[C@H]3C#N)cc2)c1 in the list: rRNA inh HTS: -11; rRNA inh HTS OD600: -36; rRNA inh HTS RFP: -8.3; MLL AF4-AF9 inh: 4.0

# Additional compounds
SMILES,rRNA inh HTS,rRNA inh HTS OD600,rRNA inh HTS RFP,MLL AF4-AF9 inh
O=C(NCC[C@H]1CC[C@H](NC(=O)C2CC2)[C@@H](CO)O1)Nc1ccc(Cl)cc1,-24,-43,6.6,11
CC(=O)Nc1cc(-c2ccc(C(=O)N3CCOCC3)cc2)cn2c(-c3cccc(C(F)(F)F)c3)cnc12,-1,10,4.2,4.0
C[C@@H]1CN([C@@H](C)CO)C(=O)c2cccc(NC(=O)c3ccc(-c4nccs4)cc3)c2O[C@H]1CN(C)S(=O)(=O)c1cccs1,-48,-77,-14,-0.1
O=C(C[C@@H]1CC[C@H]2[C@@H](COC[C@H](O)CN2S(=O)(=O)c2ccc(Cl)cc2)O1)NCc1ccc(Cl)c(Cl)c1,-57,-73,-11,5.1
C[C@@H]1CN([C@H](C)CO)C(=O)c2cc(NC(=O)NC3CCCCC3)ccc2O[C@@H]1CN(C)Cc1ccccc1,0,-3,0.4,?
O=C(C[C@@H]1CC[C@@H]2[C@H](COC[C@H](O)CN2C(=O)Nc2cc(Cl)cc(Cl)c2)O1)N1CCCCC1,-47,-71,-14,0.8
COc1cccc(S(=O)(=O)N2[C@@H]3CNC[C@H]2C3c2ccc(-c3ccccc3C)cc2)c1 (some centres not stated),-9&-59,-46&-79,18&-13,-2.2&-1.7
COc1ccc(CC(N)c2csc(Nc3nc(C)cnc3C)n2)cc1 (configuration not stated),5,13,5.4,9.2
C[C@H](CO)N1C[C@H](C)[C@H](CN(C)S(=O)(=O)c2ccc(F)cc2)Oc2ccc(NC(=O)C3CC3)cc2CC1=O,-2,6,2.2,-2.1
COc1ccc(S(=O)(=O)Nc2ccc3c(c2)C(=O)N([C@@H](C)CO)C[C@H](C)[C@H](CN(C)S(=O)(=O)c2cn(C)cn2)O3)cc1,4,9,-0.2,-1.8
O=C(C[C@@H]1CC[C@H](NC(=O)c2ccc3c(c2)OCO3)[C@@H](CO)O1)NCc1ccc(Cl)cc1,-7,-7,-2.7,-0.2
C[C@@H]1COc2cccc(NCCO)c2S(=O)(=O)N1,8,5,2.7,-1.8
